Screening data deposited in PubChem BioAssay by several laboratories.
HNF4A DNA FP: change in binding of human HNF4 alpha to DNA; HNF4a-FITC DNA binding, fluorescence polarization, 1 h; P41235; 360,000 tested, 0.3% active; activity change, % at 10 µM; AID 1224865; in the data active means activity change above about 30%, passing the limit was not always enough;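 further: controls were the assay level and a saturating level of protein; the project sought stronger binding though the title names inhibitors; some compounds called inactive have numbers as strong as hits; positive values seem to mean higher polarization but the record does not say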
FGF22 binding: FGF22 (human) thermal shift binding; Q9HCT0; recombinant FGF22 thermal shift, SYPRO orange fluorescence; percent of sucrose octasulfate shift, DMSO zero; calls only at 9.99 µM; 340,000 tested, 1.5% active;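 active means melting point raised past a set limit in the mean and every replicate; three in four hits are not shown here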
Target sequence (Q9HCT0 whole entry, looked up): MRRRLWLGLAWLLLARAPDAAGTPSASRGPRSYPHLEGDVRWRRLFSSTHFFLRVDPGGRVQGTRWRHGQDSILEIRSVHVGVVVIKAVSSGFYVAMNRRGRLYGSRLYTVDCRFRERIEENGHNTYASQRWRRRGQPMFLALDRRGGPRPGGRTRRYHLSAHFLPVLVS
Ecoli rRNA inh: inhibitors of bacterial rRNA selective over humanized ribosomes | E. coli WT GFP vs humanized-ribosome RFP mutants, fluorescence, 24 h; active compounds read low; DMSO median 0, no signal -100 | GFP signal change (wild-type ribosome), % (concentration not given with the values) | 350,000 tested, 1.6% active;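 active means significant combined selectivity score with lowered wild-type GFP, culture density cut under 30%, mutant RFP and density less affected; inactive means any of these conditions unmet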; further: one replicate is shown; some compounds called inactive have numbers as strong as hits
ALR H2O2 inh: human ALR oxidase inhibition via reduced H2O2. P55789. purified ALR, DTT oxidation, H2O2 HRP-luminol luminescence. inhibition, % (no concentration beside the values). 290,000 tested, 3.8% active. AID 485317;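 active means mean and each replicate at 75% or more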;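 further: stock transfer was 7.5 nL into about 7.5 µL; 0% = neutral wells and 100% = wells with inactivated enzyme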
Target sequence (P55789 whole entry, looked up): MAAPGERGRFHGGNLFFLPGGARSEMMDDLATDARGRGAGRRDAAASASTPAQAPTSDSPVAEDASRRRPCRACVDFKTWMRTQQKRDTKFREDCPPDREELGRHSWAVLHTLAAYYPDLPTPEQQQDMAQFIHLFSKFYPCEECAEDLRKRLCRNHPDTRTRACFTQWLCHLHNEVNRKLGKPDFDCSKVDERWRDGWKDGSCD
UCH37 DUB inh: human UCH37 deubiquitinating enzyme inhibition | 330,000 tested, 0.33% active | AID 588478 | Q9Y5K5 | purified proteasome/UCH37, Ub-AMC cleavage fluorescence | inhibition, % (test concentration not listed);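 active means mean of two replicates above 20%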;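 further: 0% = compound-free wells with enzyme and 100% = wells lacking proteasome; stock transfer was 100 nL into about 20 µL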
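assay system = human UCH37 enzyme supplied as purified proteasome complex | amount = proteasome at 0.15 nM in the dispensed enzyme solution | schedule = 30 min compound-proteasome preincubation then 25 min substrate reaction, room temperature | measured by = fluorescence, ex 355 nm, em 460 nm | benchmarks = no-proteasome wells (full inhibition) and compound-free wells (no inhibition)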
B2AR ag: human beta-2 adrenergic receptor agonism by FAP | response, % (no concentration beside the values) | P07550 | 340,000 tested, 0.43% active | Am2.2-beta2AR cells, FAP receptor internalization, flow cytometry; reference of the scale not given here;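 active means response above a set limit, near 3 SD of response in nonfluorescent compounds, cut at about 42% in these data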;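 further: stock transfer was 100 nL into about 11 µL; a reference agonist was the positive control; negative values mostly stem from fluorescent compounds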
Target sequence (P07550 whole entry, looked up): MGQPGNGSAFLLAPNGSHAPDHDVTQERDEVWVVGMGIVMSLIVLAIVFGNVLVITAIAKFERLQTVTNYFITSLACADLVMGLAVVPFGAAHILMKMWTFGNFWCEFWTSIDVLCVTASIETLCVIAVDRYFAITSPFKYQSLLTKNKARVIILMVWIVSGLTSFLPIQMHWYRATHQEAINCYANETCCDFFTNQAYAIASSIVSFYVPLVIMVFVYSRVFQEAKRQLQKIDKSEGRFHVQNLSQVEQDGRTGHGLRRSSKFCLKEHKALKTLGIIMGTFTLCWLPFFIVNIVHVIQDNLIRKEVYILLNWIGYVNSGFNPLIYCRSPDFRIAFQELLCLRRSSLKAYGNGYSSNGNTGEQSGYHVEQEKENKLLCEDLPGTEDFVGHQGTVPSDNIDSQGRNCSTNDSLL
E coli growth: blocks Escherichia coli growth; AID 1053175; OD600, 23 h; active compounds read low; OD600 absorbance (test concentration not listed); 330,000 tested, 0.21% active;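 active means OD600 absorbance below the run mean of sample wells minus 3.6 SD, in any replicate, cut at about 0.56 in these data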;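 further: stock transfer was 300 nL into about 60 µL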
Ecoli rRNA inh OD600: also measured in Ecoli rRNA inh; calls as there; OD600 change, %; measured here: OD600 growth;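 optical density of the mix in the first replicate; 0 = DMSO median and -100 = no signal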
Ecoli rRNA inh RFP: also measured in Ecoli rRNA inh; calls as there; RFP signal change, %; measured here: RFP humanized mutant strains;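 first replicate; 0 = DMSO median and -100 = no signal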
Starred values were filed as active, the others as inactive; i = inactive; nt = not tested or not shown.

SMILES	HNF4A DNA FP	FGF22 binding	Ecoli rRNA inh	Ecoli rRNA inh OD600	Ecoli rRNA inh RFP	ALR H2O2 inh	UCH37 DUB inh	B2AR ag	E coli growth
CCOC(=O)N1CCN(c2c(N3CCN(c4ccccc4F)CC3)c(=O)c2=O)CC1	-2.6	i	0	-2	-2.6	4	2.9	0	0.72
O=S(=O)(CCN1CCOCC1)c1ccc(OC(F)(F)F)cc1	-1.8	i	5	4	-2.3	-8	2.4	6	0.67
CCOC(=O)CCNC(=O)N1CCC(CCC(=O)NCc2ccc(F)cc2)CC1	5.8	i	15	12	4.3	nt	1.0	3	0.64
Cc1cc(F)cc(C)c1Cn1cnc2c(cnn2C(C)(C)C)c1=O	1.1	i	-4	0	-2.7	-4	2.8	0	0.74
O=C(CSc1nc2ccccc2o1)Nc1ccc(Cl)cc1	0.6	nt	nt	nt	nt	nt	4.2	-7	0.66
CCOC(=O)C1(C)CCCN1C(=O)c1ccc(C)cc1 (stereo unspecified)	-0.2	i	8	12	-1.9	nt	nt	nt	nt
O=C(C[n+]1ccc(C(=O)NCc2ccccc2)cc1)c1ccc2c(c1)OCCO2	3.6	i	-15	-17	5.0	-10	4.2	0	0.69
CCOc1ccccc1NC(=O)C1C2CCC(O2)C1C(=O)O (stereo unspecified)	3.6	i	-2	3	-3.1	-3	2.8	-2	0.73
O=C(CSc1nncn1-c1ccccc1)NC1CCCc2ccccc21 (stereo unspecified)	2.8	i	-2	-7	-2.4	nt	2.0	-5	0.69
CC#CC#Cc1cccc(=O)o1	-3.3	i	13	19	1.2	0	10	12	0.67
Cc1ccc(CNC(=O)c2cccnc2Cl)cc1	3.8	i	9	12	1.4	-4	-3.4	-4	0.69
Cc1ccc(NC(=S)NNC(=O)CSc2nc3ccccc3c(=O)n2-c2ccc(C)cc2)cc1	-4.9	nt	nt	nt	nt	2	1.8	-19	0.7
CC(O)C(NS(=O)(=O)c1ccc(Cl)cc1)C(=O)OCC(=O)N1CCN(c2ccccc2)CC1 (stereo unspecified)	-1.2	nt	nt	nt	nt	31	1.3	1	0.67
CCC(C)NC(=O)CN1C(=O)NC2(CCc3ccccc3C2)C1=O (stereo unspecified)	-1.2	i	6	12	-1.8	-3	1.0	-1	0.65
COc1cc(C)c(NC(=O)COc2ccc3c(c2)OCO3)cc1C	0.9	i	-5	-6	-0.3	-2	4.8	7	0.68
CCOC(=O)N1CCc2c(sc(NC(=O)CN3CCOCC3)c2C#N)C1	7.5	i	1	0	2.2	-1	4.1	-9	0.68
CCOC(=O)C1=C(C)NC(=O)C(C#N)C1c1ccncc1 (stereo unspecified)	-0.7	i	4	5	0.0	6	0.3	0	0.65
CS(=O)(=O)NCCSCc1ccccc1	2.1	nt	nt	nt	nt	1	4.3	4	0.74
CN(c1ccc(C(=O)Nc2ccc3c(c2)OCCO3)cc1)S(C)(=O)=O	-2.5	nt	6	8	3.0	0	1.2	0	0.67
O=C(NCCCCc1ccccc1)C1CC(c2cccc(F)c2)=NO1 (stereo unspecified)	-1.1	i	0	-6	-5.6	-4	0.1	0	0.66
Cc1ccc(CNC(=O)c2ccccc2NC(=O)CN2CC(C)OC(C)C2)cc1 (stereo unspecified)	-2.5	i	2	-2	1.2	2	-1.3	4	0.67
COc1ccccc1C(=O)OCCCN=C1NS(=O)(=O)c2ccccc21	-4.3	nt	10	9	0.8	17	-1.4	2	0.64
O=S(=O)(c1ccc(NC(=S)NCc2ccc(F)cc2)cc1)N1CCOCC1	3.7	i	-31	-33	-1.8	2	-0.6	-17	0.67
CCOC(=O)C(C(=O)OCC)=C1OC(=O)c2ccccc21	1.0	nt	nt	nt	nt	17	4.0	4	0.66
COc1ccc(S(=O)(=O)N2CCOCC2)cc1NC(=O)CSc1ncnc2ccccc12	0.1	i	0	-1	24	15	-0.4	-3	0.7

Of the compounds above, these have an aryl thioether with sulfur outside any ring.
SMILES	HNF4A DNA FP	FGF22 binding	Ecoli rRNA inh	Ecoli rRNA inh OD600	Ecoli rRNA inh RFP	ALR H2O2 inh	UCH37 DUB inh	B2AR ag	E coli growth
O=C(CSc1nc2ccccc2o1)Nc1ccc(Cl)cc1	0.6	nt	nt	nt	nt	nt	4.2	-7	0.66
O=C(CSc1nncn1-c1ccccc1)NC1CCCc2ccccc21 (stereo unspecified)	2.8	i	-2	-7	-2.4	nt	2.0	-5	0.69
Cc1ccc(NC(=S)NNC(=O)CSc2nc3ccccc3c(=O)n2-c2ccc(C)cc2)cc1	-4.9	nt	nt	nt	nt	2	1.8	-19	0.7
COc1ccc(S(=O)(=O)N2CCOCC2)cc1NC(=O)CSc1ncnc2ccccc12	0.1	i	0	-1	24	15	-0.4	-3	0.7

Next structures:
SMILES	HNF4A DNA FP	FGF22 binding	Ecoli rRNA inh	Ecoli rRNA inh OD600	Ecoli rRNA inh RFP	ALR H2O2 inh	UCH37 DUB inh	B2AR ag	E coli growth
COc1ccc(S(=O)(=O)N2CCC(C(=O)NC3CCCCC3)CC2)cc1C	0.0	i	3	-1	0.3	2	5.6	-9	0.67
O=[N+]([O-])c1ccc(N2CCN(Cc3ccccc3)CC2)nc1	2.1	i	-2	-6	20	-2	7.2	-1	0.67
COc1cc(/C=C/C(=O)c2ccc(C)cc2)ccc1OCC#N	-2.1	i	-4	-7	-3.1	49	4.6	4	0.65
Cc1cc(-c2csc(NC(=O)c3ccc(C#N)cc3)n2)c(C)n1Cc1ccccc1	1.2	i	nt	nt	nt	nt	2.9	7	0.68
Cc1cc([N+](=O)[O-])nn1CC(=O)NCCc1c[nH]c2ccccc12	-5.8	i	4	-4	1.2	53	2.2	4	0.69
CCCCCCn1c(CN2CCN(C)CC2)nc2c1c(=O)n(C)c(=O)n2C	-3.3	i	6	8	-0.8	-34	1.4	-26	0.76
CN(C)C(CNC(=O)c1cccs1)c1cccnc1 (stereo unspecified)	-1.3	i	0	-4	1.7	-6	6.4	2	0.72
COc1cc(NC(=O)C2CCN(S(=O)(=O)c3cnc[nH]3)CC2)cc(OC)c1OC	5.8	nt	nt	nt	nt	-7	4.0	-1	0.7
CC(=O)/C(=N/Nc1cccc(C)c1)N1CCOCC1	-1.6	nt	nt	nt	nt	99*	nt	-3	nt
CCCc1cc(=O)oc2cc(OCC(=O)N3CCc4ccccc43)ccc12	-0.8	nt	1	7	-2.2	-5	-14	-2	0.71
O=C(NCc1ccco1)c1nc(-c2ccccc2)n(-c2ccccc2)n1	0.4	nt	nt	nt	nt	-3	-0.5	-4	0.66
COC(=O)CNC(=O)CNC(=O)c1nn(-c2ccc(OC)c(OC)c2)c(=O)c2ccccc12	-2.3	i	10	12	-3.2	nt	3.9	-4	0.66
CSc1nc2ncc3c(n2n1)CC(C)(C)CC3=O	3.0	i	4	7	-5.5	-6	-2.8	-7	0.7
Cc1cc(NC(=O)CSc2nc(C3CC3)nc3sc4c(c23)CCC(C)C4)no1 (stereo unspecified)	nt	nt	nt	nt	nt	-2	1.7	nt	0.7
CCCc1cc(=O)[nH]c(SCc2ccccc2)n1	1.9	nt	nt	nt	nt	nt	1.8	-3	0.66
Cc1nn(C)cc1/C=N/NC(=O)C1(O)c2ccccc2-c2ccccc21	1.0	i	7	11	3.2	nt	nt	-2	nt
COc1ccc(C(CC(=O)O)NC(=O)c2ccco2)cc1OC (stereo unspecified)	3.0	nt	nt	nt	nt	1	4.1	7	0.78
Oc1cccc(/C=N/N2CCN(C3c4ccccc4-c4ccccc43)CC2)c1	0.2	i	-10	-2	0.4	-6	nt	0	nt
Cc1ccc(NC(=S)NNC(=S)NC2CCCCC2)cc1	0.2	i	-8	-15	-3.7	20	-2.1	-3	0.73
Cc1ccc(CCNS(=O)(=O)c2ccc3c(c2)NC(=O)CCS3)cc1	7.2	i	-8	-16	5.3	-4	-0.1	0	0.71
O=S(=O)(NCCCCNS(=O)(=O)c1ccc(F)cc1)c1ccc(F)cc1	1.7	i	7	7	-0.4	-8	4.1	-3	0.64
COc1ccc(CCNC(=O)C(=O)NCC2CCCN2S(=O)(=O)c2ccccc2)cc1 (stereo unspecified)	-0.2	i	-12	-6	1.5	-2	-1.6	12	0.63
CCN(CC(=O)NCc1cccs1)C(=O)c1cccc(S(=O)(=O)N(CC)c2ccccc2)c1	0.6	i	-29	-28	-18	nt	2.0	4	0.65
NS(=O)(=O)c1ccc(CNC(=O)/C=C/c2c(F)cccc2Cl)cc1	-0.6	i	-21	-20	0.7	nt	1.4	3	0.67
O=C(CN(Cc1ccc(F)cc1)S(=O)(=O)c1ccc(S(=O)(=O)N2CCOCC2)cc1)Nc1ccccc1	1.4	i	6	21	1.0	-2	6.3	11	0.67

Continued:
SMILES	HNF4A DNA FP	FGF22 binding	Ecoli rRNA inh	Ecoli rRNA inh OD600	Ecoli rRNA inh RFP	ALR H2O2 inh	UCH37 DUB inh	B2AR ag	E coli growth
Cc1ccc(NC(=O)COC(=O)CN2C(=O)COc3ccccc32)cc1	3.0	nt	nt	nt	nt	2	5.0	2	0.7
N#CC1=C(N)NC(=S)C(C(N)=O)C1c1ccc([N+](=O)[O-])cc1 (stereo unspecified)	4.5	i	18	15	1.9	68	7.2	-3	0.7
COc1ccccc1CN1CCC(n2nccc2NC(=O)CCCc2ccccc2)CC1	2.6	i	13	4	4.7	-4	1.6	-5	0.7
CCOC(=O)c1c(C)n(C)c2cc(-c3cccc(C(F)(F)F)c3)c(O)cc12	-0.2	i	0	8	1.6	0	0.0	-10	0.67
CNC(=S)N1CCC(NC(=O)C(Cc2ccc(F)cc2)NC(C)=O)CC1 (stereo unspecified)	-0.3	i	4	0	0.6	nt	3.7	3	0.67
O=[N+]([O-])c1cccnc1N1CCCCC1	2.7	nt	nt	nt	nt	-4	3.4	7	0.7
CCOC(=O)C1=C(COC(=O)/C=C/c2ccc(SC)cc2)NC(=O)NC1C (stereo unspecified)	-0.3	i	0	2	-2.8	2	-94	-1	0.62
COc1ccc(CCNC(=O)COC(=O)/C=C/c2ccc(OCC#N)c(OC)c2)cc1	1.3	i	6	0	-3.8	-4	-39	0	0.64
CC(C)(C)Nc1nc(Cl)nc(NC(C)(C)C)n1	1.6	nt	nt	nt	nt	-36	0.6	12	0.68
COc1ccc(N2CCN(c3nc4c(c(=O)[nH]c(=O)n4C)n3Cc3cccc(C)c3)CC2)cc1	-2.2	nt	nt	nt	nt	8	1.2	6	0.69
Cn1nc(-c2ccccc2)cc1NC(=O)c1cccs1	-2.9	i	-17	-16	-0.9	37	4.0	-3	0.65
COc1cc(/C=C/C(=O)OCc2csc(CC(=O)Nc3ccc(C)cc3)n2)ccc1OCC#N	0.9	i	-1	-1	3.8	-2	-1.7	7	0.65
NC(=O)COC(=O)c1c2c(nc3ccccc13)CCCC2	-4.4	i	2	0	-4.5	11	2.8	2	0.71
COc1cc2c(cc1OC)CN(C(=O)c1cc(S(=O)(=O)N3CCCCC3)ccc1Cl)CC2	5.0	i	-22	-23	1.2	-1	0.9	10	0.74
O=C(NCc1cccs1)c1ccc2sc(COCCO)nc2c1	0.9	i	3	1	0.9	nt	nt	nt	nt
COc1ccc2nc(N(Cc3ccccc3)C(=O)CCNC(C)=O)sc2c1	2.2	i	-2	-17	5.3	-13	1.4	-9	0.69
Cc1cc(N/N=C/c2c[nH]c3ccccc23)c2ccccc2n1	-0.3	nt	14	8	9.6	49	nt	-6	nt
Cc1ccc2[nH]c(=O)c(CN(Cc3cccs3)Cc3nnnn3Cc3ccccc3)cc2c1	12	i	-5	-3	-4.2	-3	-1.2	-1	0.74
CC(C)CC(=O)NC(=S)Nc1cccc(NC(=O)c2ccccc2)c1	-1.2	i	-2	-1	1.0	-9	3.4	-2	0.67
CCO[C@@H]1OC(C(=O)NCc2nc3ccccc3[nH]2)=C[C@H](C)[C@H]1CCCO	-4.5	i	6	3	1.9	-8	2.1	1	nt

These rows are one share of the data; the hit share may differ from the screen's.
